# Screens deposited in PubChem by National Center for Advancing Translational Sciences (NCATS).
# VDR inh – blocks the human vitamin D receptor; Potency, µM, for the others: max response, negative = inhibition, hits mostly inhibitors; P11473; hit rate 0.93% among 400,000; VDR-SRC2-3 peptide fluorescence polarization, 2 h; active means well fitted inhibition curve with a large enough effect; further: series mostly up to about 120 µM
#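 Compounds are added to VDR with labelled SRC2-3 coactivator peptide and held 2 h at room temperature. Inhibition of the VDR–peptide interaction is then read as a change in fluorescence polarization.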
# The depositor's hits bear a star; & = joins results of further samples. On the % scale 0 is the no-effect control and ±100 the full control effect; potency means the concentration at half of the fitted maximal effect. Not all compounds are listed (hit frequency here may not be typical).
# The opening 2 compounds, ahead of the listing:
SMILES,VDR inh
COc1ccc(S(=O)(=O)N(CCc2ccccc2)CC(=O)NCc2ccccc2)cc1OC,-12%
CCC(NC(=O)Nc1nnc(C(F)(F)F)s1)(C(F)(F)F)C(F)(F)F,11%

# All compounds of this part, repeating the preview:
SMILES,VDR inh
COc1ccc(S(=O)(=O)N(CCc2ccccc2)CC(=O)NCc2ccccc2)cc1OC,-12%
CCC(NC(=O)Nc1nnc(C(F)(F)F)s1)(C(F)(F)F)C(F)(F)F,11%
O=C1c2ccccc2C(=O)N1c1cccnc1,-5%
COC(=O)c1ccc(CNC(=O)c2ccc3c(c2)S(=O)(=O)N=C2CCCCCN23)cc1,-7%
COc1ccccc1CNC(=O)C1CCN(Cc2nc(-c3cccc(Cl)c3)oc2C)CC1,4%
COC(=O)c1cc(S(=O)(=O)NCC2CCN(Cc3cccc(F)c3)CC2)c[nH]1,10%&16%
CN(C(=O)COC(=O)CNC(=O)c1ccc2ccccc2c1)c1c(N)n(Cc2ccccc2)c(=O)[nH]c1=O,-16%
CCN(CC)C(=O)CSc1nc2ccc(NC(=O)CSc3nnc(COc4ccccc4C)n3C)cc2s1,10%
COc1cccc(C(=O)N2CCN(C(=O)c3cccs3)CC2)c1OC,-7%
Cc1nc2ccc(NC(=O)N3CCOCC3)cc2nc1C,2%
CN(C)C(CNC(=O)CCCN1C(=O)c2cccc3cccc(c23)C1=O)c1ccccc1 (stereo not drawn),-7%
Cn1c(SCC(=O)Nc2ccc3[nH]c(=O)[nH]c3c2)nnc1-c1ccccc1,-8%

# Some of the entries so far, with the structure last.
VDR inh	canonical_smiles
-8%	Cn1c(SCC(=O)Nc2ccc3[nH]c(=O)[nH]c3c2)nnc1-c1ccccc1
11%	CCC(NC(=O)Nc1nnc(C(F)(F)F)s1)(C(F)(F)F)C(F)(F)F
-12%	COc1ccc(S(=O)(=O)N(CCc2ccccc2)CC(=O)NCc2ccccc2)cc1OC
-7%	COC(=O)c1ccc(CNC(=O)c2ccc3c(c2)S(=O)(=O)N=C2CCCCCN23)cc1
10%&16%	COC(=O)c1cc(S(=O)(=O)NCC2CCN(Cc3cccc(F)c3)CC2)c[nH]1
